Menin-MLL FL inh: inhibitors of human menin-MLL interaction, wild-type MLL peptide; 290,000 tested, under 10 active; FP activity change, % at 61.4 µM; Fluorescence polarization, fluorescein-MLL peptide displacement from menin; inconclusive = falling polarisation curve, or a change in total fluorescence; inactive = total fluorescence flat and polarisation flat or rising; no compound was filed as active; the % refers to the polarisation; negative = inhibition;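 note: % of control where 0% means no effect; inhibitors lower the polarisation; unlabelled MLL peptide was the positive control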
PINK1 expr mod: changes PINK1 expression; Potency, µM (series often up to 76.6 µM), for inactives: at the highest dose activation (PINK1 increase), most hits filed as activators; AID 624263; PINK1 immunofluorescence, high-content cytometry, 24 h; 0.2% of 410,000 active; active = well fitted activation curve with a large enough effect; inconclusive = small, poorly fitted or top-dose-only effect; inactive = flat fitted curve, though single readings scatter; cell line not stated here;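 note: potency is the fitted concentration of half-maximal effect; % of control where 0% means no effect; nearly all actives have a fitted effect of over 65% in size; a mitochondrial uncoupler was the plate control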
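Measures PINK1 amount and localization on or inside mitochondria by immunofluorescence. Stable cells get compounds at 5 concentrations for 24 hours before fixation and staining; CCCP controls included.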
TRPML1 blocker: inhibitors of human TRPML1 channel; Q9GZU1; TRPML1-inducible cells, Ca2+ dye fluorescence, FDSS; active compounds read low; inhibition of EC80 agonist-evoked calcium signal; activity change, negative = inhibition, % (test concentration not listed); 0.02% of 390,000 active; in the data active means activity change below about -50%; inconclusive means about -30% to -50%; inactive means above about -30%;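 note: stimulus is agonist 54-4 at its EC80 concentration; % is set by controls: 0 for no effect and ±100 for the full control effect; compound concentration not given in the record; the text of the record puts the active cut at -80%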
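TRPML1-DL cells, Tet-induced overnight (~16 h, 37 °C) at 1,500 cells/well, were loaded with Ca8 no-wash dye plus quencher for 45-90 min at room temperature. Compounds were pinned during FDSS kinetic reading; agonist 54-4 at EC80 (4 uM final) then added.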
ClpP mod: qHTS Assay for Activators of ClpP; ATP-dependent Clp protease proteolytic subunit (Bacillus subtilis (strain 168)), P80244; purified B. subtilis ClpP, FRET peptide cleavage, 20 min; Potency, µM (highest dose often 57.5 µM), for the others: at the top dose activity change, negative = active; 1.9% of 340,000 active; active = well fitted falling curve with a large enough effect; inconclusive = small, poorly fitted or top-dose-only effect; inactive = no such curve, though single readings can be large or run the other way; note: potency is the fitted concentration of half-maximal effect; the source files actives as falling curves though it sought activators and does not explain the sign; nearly all actives have a fitted effect of over 65% in size; many hits overshoot -100%
Target sequence (P80244 whole entry, looked up): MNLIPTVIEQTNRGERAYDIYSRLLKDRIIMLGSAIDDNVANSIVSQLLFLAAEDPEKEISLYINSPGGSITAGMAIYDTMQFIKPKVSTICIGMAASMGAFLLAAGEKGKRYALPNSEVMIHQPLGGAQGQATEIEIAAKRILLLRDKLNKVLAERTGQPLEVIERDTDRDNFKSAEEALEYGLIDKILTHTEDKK
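Purified B. subtilis ClpP, 10 microg/mL final in Tris/HCl pH8 with KCl, BSA, glycerol and Tween-20, cleaved an Abz/nitrotyrosine-quenched decapeptide. Fluorescence (ex 320, em 430) was read at 0 and 20 min at room temperature. Delta was normalized to 5.8 microM ADEP and DMSO/no-enzyme controls.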
TRPV1 PAM: human TRPV1 potentiation; potentiation, % at 8.33 µM; 0.02% of 320,000 active; TRPV1-expressing cells, Fluo-8 calcium influx, capsaicin EC20 potentiation; host cell line not named in the record; control for the full effect not named in the record; Q8NER1; active means potentiation above 80%; inconclusive means 30% to 80%; inactive means below 30%; note: 0% is about no effect
Target sequence (Q8NER1 whole entry, looked up): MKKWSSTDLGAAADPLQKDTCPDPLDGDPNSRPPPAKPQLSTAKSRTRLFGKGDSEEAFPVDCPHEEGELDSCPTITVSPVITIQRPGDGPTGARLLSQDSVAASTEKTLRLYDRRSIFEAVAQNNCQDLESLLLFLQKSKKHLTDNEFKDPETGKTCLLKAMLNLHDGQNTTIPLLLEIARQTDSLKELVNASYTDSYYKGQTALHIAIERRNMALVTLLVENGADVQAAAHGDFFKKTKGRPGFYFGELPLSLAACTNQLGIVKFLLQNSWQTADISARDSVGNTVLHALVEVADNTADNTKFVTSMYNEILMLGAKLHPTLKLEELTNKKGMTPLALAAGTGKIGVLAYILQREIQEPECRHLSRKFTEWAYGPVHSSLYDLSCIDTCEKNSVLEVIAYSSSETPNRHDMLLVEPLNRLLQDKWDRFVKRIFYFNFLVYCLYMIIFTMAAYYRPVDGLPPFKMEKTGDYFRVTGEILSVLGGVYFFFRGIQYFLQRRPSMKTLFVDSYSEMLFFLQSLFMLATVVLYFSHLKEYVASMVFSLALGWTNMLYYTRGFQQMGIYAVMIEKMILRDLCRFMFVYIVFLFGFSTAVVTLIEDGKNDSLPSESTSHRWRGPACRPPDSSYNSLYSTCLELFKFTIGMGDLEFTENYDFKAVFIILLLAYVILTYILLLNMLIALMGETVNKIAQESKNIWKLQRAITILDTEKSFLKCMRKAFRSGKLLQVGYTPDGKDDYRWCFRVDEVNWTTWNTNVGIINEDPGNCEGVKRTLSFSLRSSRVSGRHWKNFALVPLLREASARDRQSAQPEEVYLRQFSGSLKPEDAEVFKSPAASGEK
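TRPV1-expressing cells were cultured overnight at 35.5C and loaded with Fluo-8 calcium dye for 40 to 90 min at room temperature. After a 10 s baseline, compound was added and calcium influx was read kinetically for 3 min (ex 480/em 520 nm).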
TRPML1 agonist: activates the human TRPML1 channel | Q9GZU1 | AID 624414 | TRPML1-expressing cells, Ca2+ dye fluorescence, FDSS; host cell line not named in the record; reference of the full effect not given here | 0.12% of 410,000 active | activation, % (concentration not given with the values); in the data active = activation above about 50%; inconclusive = about 30% to 50%; inactive = below about 30%; note: 0% is about no effect; the text of the record puts the active cut at 80%
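In this qHTS format, compounds were pin-transferred onto Ca8-dye-loaded TRPML1-DL cells induced with Tet overnight, and intracellular Ca2+ fluorescence was recorded kinetically for 110 s after a 10 s baseline. A subsequent 4uM final 54-4 (EC80) addition followed by a second 110 s read served as the antagonist phase.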
Sfp inh: blocks B. subtilis Sfp PPTase activity | AID 1490 | 3.5% of 310,000 active | Biochemical Sfp PPTase activity, qHTS | Potency, µM, inactives show max response, negative = inhibition, actives largely listed as inhibitors; active = well fitted inhibition curve with a large enough effect; inconclusive = small, poorly fitted or top-dose-only effect, or another doubt; inactive = no such curve, though single readings can be large or run the other way;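 note: the enzyme is Sfp with the accession as filed and its product quenches rhodamine fluorescence; potency is the fitted concentration of half-maximal effect; 0% = enzyme reaction without inhibitor and -100% = no enzyme wells; top concentration of the series not given in the record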
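Reaction rates are the 30-min fluorescence difference (ex 525, em 598 nm) in wells containing 15 nM Sfp, 5 uM rhodamine-CoA and 12.5 uM BHQ-2-YbbR at pH 7.6 with 10 mM MgCl2.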
* hit, by the source's call; ? = inconclusive; . = not tested or not shown; & = joins results of further samples; [ ] = remark or other dose.

SMILES	Menin-MLL FL inh	PINK1 expr mod	TRPML1 blocker	ClpP mod	TRPV1 PAM	TRPML1 agonist	Sfp inh
COc1cccc(C2=NOC(C(=O)Nc3ccccc3SC)C2)c1 (stereo not drawn)	-0.1	-2.0%	11	-2.0%	-6	6.1	-8%
COc1ccc(Nc2nc(-c3ccc(C)cc3)nc3ccccc23)c(OC)c1	.	1.3%	-16	-2.4%	.	0.3	.
CC(=O)NNC(=S)NC(=O)c1ccc(C)cc1	-1.9	-0.5%	7	.	2	-0.7	23%
Cc1cccc(Cn2c(CNS(=O)(=O)c3ccc4c(c3)CCCC4)nc3cccnc32)c1	.	1.6%	38	-0.8%	.	0.7	.
CCN(CC)S(=O)(=O)c1cc(C)c(C)cc1OCC(=O)NC1CCCC1	.	0.3%	-7	-2.0%	-21	1.1	0%
COC(=O)c1ccc(CNC(=O)CNc2cc(C(F)(F)F)ccc2N2CCOCC2)cc1	0.7	0.5%	-2	-3.2%	7	0.2	-8%
O=C(CC1CCCC1)N1CCCC(Nc2cccc(F)c2)C1 (stereo not drawn)	.	-0.1%	-2	.	-11	1.0	1%
O=C(c1ccc([N+](=O)[O-])cc1)N(Cc1ccccc1)c1ccccn1	34[activator]	-0.6%	13	.	-6	-0.8	14%
S=C(Nc1ccc(Cl)cc1Cl)N1CCOCC1	-0.2	-0.5%	-7	-2.1%	-6	-0.1	20%
COc1ccc(N2CCN(C(=O)c3cc4ccc5cccnc5c4[nH]3)CC2)cc1	.	4.1%	-15	-2.8%	.	2.7	.
FC(F)(F)c1cnc(N2CCCN(C(=S)Nc3ccccc3)CC2)c(Cl)c1	1.1	4.9%	-12	.	21	0.6	-5%
Cn1c2c(c(=O)c3ccccc31)CCC(C)(C)O2	6.1	2.2%	12	-5.1%	-4	-1.4	17%
CC(=O)Nc1ccc(N/C(N)=N/c2nc(C)cc(C)n2)cc1	-6.3	0.9%	-2	.	4	0.6	14%
COc1ccccc1CNC(=O)c1ccc(CS(=O)(=O)c2c(Cl)cccc2Cl)o1	.	1.0%	8	-2.7%	.	2.4	.
c1ccc(CN2CCC3(CC2)Nc2ccccc2CO3)cc1	-1.3	-4.8%[38.3 µM]	-28	-4.7%	?	1.9	8%
COc1ccc(N2CCN(C(=O)CSc3nnc(-c4ccc5[nH]c(C)c(C)c5c4)o3)CC2)cc1	-0.7	.	20	-2.3%	-1	0.5	2%
CCOc1ccccc1NC(=O)c1cc2c(Cl)nc3ccccc3c2s1	.	-0.8%	11	-1.4%	.	-0.6	.
O=C(NCc1ccc2c(c1)OCO2)C(=O)NCC1OCCN1S(=O)(=O)c1ccc(Cl)cc1 (stereo not drawn)	4.4	?	6	-1.1%	2	2.2	7%
CCN(CC)CCNC(=O)C1CCN(S(=O)(=O)c2c(C)noc2/C=C/c2ccccc2F)CC1	.	1.1%&-0.5%	5&-4	0.7%&-1.0%	12	-0.3&0.7	-12%
CC1=CC(C)(C)N=C(Nc2ccc(C)cc2)S1	0.0	30%[38.3 µM]	6	0.3%	2	3.9	-17%
Cc1ccc2nc(NC(=O)CC3Oc4ccccc4NC3=O)sc2c1 (stereo not drawn)	6.3	1.1%	.	-0.5%	9	.	16%
CCc1cc(=O)oc2cc(OCC(=O)O)c(Cl)cc12	1.6	0.2%	23	?	3	0.2	23%
O=C(CSc1nnc(-c2cccs2)n1-c1ccccc1)N1CCN(C(=O)c2ccco2)CC1	2.5	.	.	.	-1	.	-24%
CC(C)n1cc(CN2CCC(Oc3ccc(C(=O)N4CCCCC4)cc3)CC2)cn1	.	-2.3%	2	22µM*	2	0.3	7%
O=C(CNc1cccc(S(=O)(=O)N2CCCCC2)c1)Nc1ccc(C(F)(F)F)cc1	.	?	0	-1.9%	.	0.0	.

Going on with the list:
SMILES	Menin-MLL FL inh	PINK1 expr mod	TRPML1 blocker	ClpP mod	TRPV1 PAM	TRPML1 agonist	Sfp inh
Cc1ccccc1-c1csc(N)n1	.	-1.8%	-8	.	.	-0.7	.
CCN(CC(=O)Nc1cc(Cl)ccc1C)C(=O)CSCc1ccccc1	.	-0.7%	20	3.8%	-9	1.5	.
CCOC(=O)Cn1nc2oc(=O)c(CCN3CCN(c4ccccc4OC)CC3)c(C)c2c1C	.	1.1%	-11	-28%	.	-0.4	.
CC1CCN(c2ccc3nnc(CCC(=O)N4CCN(c5ccc(F)cc5)CC4)n3n2)CC1	0.8	-0.7%	1	-1.1%	0	-1.2	-3%
COc1cccc(CNC(=O)C2CCN(S(=O)(=O)c3cnc[nH]3)CC2)c1	4.2	-1.8%	-3	-0.1%	6	-0.1	10%
CSc1ncccc1C(=O)NCc1ccc(C)cc1	2.6	0.3%	-2	-0.7%	2	1.1	6%
O=C(c1ccccc1Cl)N1CCN(C(=O)C2CCCO2)CC1 (stereo not drawn)	.	1.8%	6	.	-3	0.5	.
COC(=O)c1ccccc1NC(=O)c1cc(C)no1	3.0	-1.0%	-4	-25%	5	0.7	29%
CCCNC(=O)COC(=O)c1ccccc1OCC(=O)Nc1ccc(Br)cc1	12	4.2%	-5	-2.5%	-10	-0.8	-1%
Cc1cc(C)cc(NC(=O)CC23CC4CC(C2)CC(n2nnc(C)n2)(C4)C3)c1	4.9	-1.0%	-6	-1.5%	-3	3.8	-1%
CCNc1ncc2nc(-c3ccc(Cl)cc3)c(=O)n(C)c2n1	-3.5	6.7%	.	.	.	.	11%
COc1ccc(N(CC(=O)NCc2ccc(C)cc2)S(=O)(=O)c2c(C)noc2C)cc1	.	2.8%	-6	2.8%	-1	-0.4	15%
Cc1onc(-c2ccccc2)c1C(=O)/C=C/N(C)C	1.7	-1.2%	21	-1.1%	3	0.5	18%
COc1cccc(C(=O)CSc2nnc(-c3cc(OC)c(OC)c(OC)c3)o2)c1	-0.1	-5.6%[38.3 µM]	-10	-7.3%	-6	1.1	9%
O=S(=O)(c1ccccc1)N1CCn2c(nc3ccccc32)C1	2.9	-1.2%	17	-1.2%	-14	0.2	22%
CC1CC(C)CN(S(=O)(=O)c2ccc(NC(=O)CN3CCCCCC3)cc2)C1 (stereo not drawn)	.	21%	-8	0.8%	6	14	.
C/C=C/c1cccc(-c2nc(C(=O)N3CCOCC3)cc3c2[C@@H](CCO)N(C(=O)NC(C)C)C3)c1	.	3.4%	.	-2.4%	.	-0.1	.
COc1ccc2[nH]c3c(=O)n(Cc4ccco4)cnc3c2c1	4.4	-1.5%	1	25µM*	6	-1.2	22%
CSCCC1COC(c2cccs2)=N1 (stereo not drawn)	-0.2	0.2%	5	-0.1%	24	-1.2	3%
COc1cccc(-c2nc(NCc3ccco3)c3ccccc3n2)c1O	3.5	5.9%	-8	0.2%	13	-0.2	13%
O=c1[nH]c2ccc(Br)cc2c(=O)o1	.	0.8%	-8	4.0%	.	-0.4	.
CCOC(=O)c1c(-c2ccc(Br)cc2)csc1NC(=O)c1ccc(F)cc1	.	3.1%	-1	-1.2%	.	-0.6	.
COc1ccc(S(=O)(=O)N(C)c2ccc(C(=O)N3CCCC3)cc2)cc1OC	0.3	1.8%	0	.	7	1.2	-3%
Cc1ccc(CN(C)C(=O)CCNS(=O)(=O)c2ccccc2)o1	.	1.4%	16	0.2%	20	-0.8	.
Cc1ccc(C(=O)N(Cc2ccccc2)C(C)(C)C)cc1C	5.4	11%	12	0.9%	-11	6.0	-7%

Continued.
SMILES	Menin-MLL FL inh	PINK1 expr mod	TRPML1 blocker	ClpP mod	TRPV1 PAM	TRPML1 agonist	Sfp inh
CCCCc1ccc(-c2csc(/C(C#N)=C/c3ccc(C)o3)n2)cc1	14	6.2%	4	-0.2%	-14	3.1	5%
CCc1nnc(NS(=O)(=O)c2ccc(NC(=O)c3cc4ccccc4oc3=O)cc2)s1	0.6	.	.	.	1	.	13%
COC(=O)c1ccc(C(=O)OC)c(NC(=O)C(C)C)c1	-4.3	2.2%	-3	.	-44	0.1	14%
Cc1ccccc1C(=O)NC[C@@H]1CCCN2CCCC[C@H]12	0.9	0.1%	-19	0.0%	3	-0.7	13%
CC(=O)C1=C(O)C(=O)N(CCO)C1c1ccccc1 (stereo not drawn)	-4.2	1.0%	0	-8.4%	5	0.2	18%
O=C(Nc1cccc(Cl)c1)N1CCN(c2ncccn2)CC1	7.1	-1.0%	7	-4.0%	.	-0.5	10%
CCOC(=O)c1sc2nc(C)nc(N3CCCCC3C)c2c1C (stereo not drawn)	-0.1	11%	6	.	-5	-0.6	-2%
CCCCCCNC(=O)O[C@]12C[C@@H](C(=O)OC)[C@@H](C(=O)OC)C[C@@]1(O)CN(S(=O)(=O)c1ccc(C)cc1)C2	.	-0.8%	25	1.3%	.	0.5	.
Cn1cc(CN2CCc3c([nH]c4ccccc34)C2C2CCCCC2)cn1 (stereo not drawn)	2.1	-0.9%	-9	.	5	-0.6	?
Nc1c(C(=O)Nc2ccc3c(c2)OCCO3)nnn1Cc1ccc(Cl)cc1	.	15%	5	-9.1%	4	7.6	.
CCc1ccc(NS(=O)(=O)c2c(C)noc2C)cc1	-3.9	0.8%	19	-0.7%	-2	1.0	10%
COc1ccccc1CNC(=O)CCCCn1c(=O)c2ccccc2n(Cc2ccccc2F)c1=O	.	9.6%	9	-9.5%	.	-0.4	.
Cc1noc(NS(=O)(=O)c2ccc(NS(=O)(=O)c3ccc(C(C)(C)C)cc3)cc2)c1C	.	0.6%	-15	1.9%	.	-0.7	.
C=CCn1c(SCC#N)nc2ccc(Cl)cc2c1=O	.	-0.4%	.	-6.9%	.	-0.6	.
CCN1C(=O)c2ccccc2S(=O)c2ccc(C(=O)NCc3ccc(OC)cc3)cc21 (stereo not drawn)	.	-0.1%&-0.1%	-1&5	-1.2%&1.1%	-13	0.8&0.0	0%

Quoted at random: 2 records from the list, in no set order.
SMILES	Menin-MLL FL inh	PINK1 expr mod	TRPML1 blocker	ClpP mod	TRPV1 PAM	TRPML1 agonist	Sfp inh
O=C(CNc1cccc(S(=O)(=O)N2CCCCC2)c1)Nc1ccc(C(F)(F)F)cc1	.	?	0	-1.9%	.	0.0	.
CCCNC(=O)COC(=O)c1ccccc1OCC(=O)Nc1ccc(Br)cc1	12	4.2%	-5	-2.5%	-10	-0.8	-1%

Compound activity deposited in PubChem BioAssay by National Center for Advancing Translational Sciences (NCATS).

Compounds as they come. Share with any hit: about 4.4%.
